FGF22 binding: binders of human FGF22 protein, primary screen, FGF22 synaptogenesis inhibitor project, biophysical, thermal shift, single point | recombinant FGF22 thermal shift, SYPRO orange fluorescence; percent of sucrose octasulfate shift, DMSO zero | calls only at 9.99 µM | 1.5% of 340,000 active;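 active = melting point raised past a set limit in the mean and every replicate; inconclusive = no clear call; three in four hits are not shown here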
Target sequence (Q9HCT0 whole entry, looked up): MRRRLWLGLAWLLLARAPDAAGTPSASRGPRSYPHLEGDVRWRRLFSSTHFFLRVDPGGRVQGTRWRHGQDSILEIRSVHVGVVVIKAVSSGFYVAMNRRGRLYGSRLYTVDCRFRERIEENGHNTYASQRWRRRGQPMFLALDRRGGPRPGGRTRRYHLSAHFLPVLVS
Vif TR-FRET: inhibitors of Vif binding to APOBEC3G peptide, primary screen, biochemical, TR-FRET, GST-Vif 1-94, biotin-A3G peptide, dose response retest (AID 1117319). Virion infectivity factor (Human immunodeficiency virus type 1 group M subtype B (isolate …. 0.57% of 260,000 active. one-dose inhibition, %; IC50 in µM for titrated hits. TR-FRET GST-Vif / biotin-A3G peptide binding; higher % means a stronger effect; test concentration not given here; strong numbers were not always called active;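 active = above the screen mean plus three standard deviations and confirmed in dose response; inconclusive = results disagree or hit not tested in dose response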;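 note: Vif residues 1-94 fused to GST binding biotinylated APOBEC3G peptide 110-148; 0% = full assay without inhibitor and 100% = GST in place of GST-Vif; retest series ran down from 100 µM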
Ecoli growth: E. coli growth inhibition, primary screen, OD600; Escherichia coli growth, 23 h; hits give low values; OD600 absorbance (test concentration not listed); 0.21% of 330,000 active; AID 1053175, 2014;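 active = OD600 absorbance below the run mean of sample wells minus 3.6 SD, in any replicate, cut at about 0.56 in these data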;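 note: stock transfer was 300 nL into about 60 µL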
HNF4A DNA FP: change in binding of human HNF4A to DNA, primary screen, biochemical, fluorescence polarization, FITC-DNA; AID 1224865, 2016; 0.3% of 360,000 active; Hepatocyte nuclear factor 4-alpha (Homo sapiens), P41235; activity change, % at 10 µM; 1 h; in the data active = activity change above about 30%, passing the limit was not always enough;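 note: controls were the assay level and a saturating level of protein; the project sought stronger binding though the title names inhibitors; some compounds called inactive have numbers as strong as hits; positive values seem to mean higher polarization but the record does not say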
AF4-AF9 inh: inhibitors of AF4 peptide binding to AF9, primary screen, biochemical, AlphaScreen, biotin-AF4 peptide, FLAG-AF9, single point; Protein AF-9 (Homo sapiens), P42568; inhibition, % at 10 µM; 0.47% of 350,000 active; AID 651704, 2012;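 active = every replicate reaching a set inhibition limit, whatever the replicate mean, cut at about 25% in these data; inconclusive = mean inhibition reaches that limit but some replicates miss it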;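 note: 0% = plate neutral control median and 100% = total signal loss; the record names both 10 and 1 µM as test concentration; the first replicate is given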
Target sequence (P42568 whole entry, looked up): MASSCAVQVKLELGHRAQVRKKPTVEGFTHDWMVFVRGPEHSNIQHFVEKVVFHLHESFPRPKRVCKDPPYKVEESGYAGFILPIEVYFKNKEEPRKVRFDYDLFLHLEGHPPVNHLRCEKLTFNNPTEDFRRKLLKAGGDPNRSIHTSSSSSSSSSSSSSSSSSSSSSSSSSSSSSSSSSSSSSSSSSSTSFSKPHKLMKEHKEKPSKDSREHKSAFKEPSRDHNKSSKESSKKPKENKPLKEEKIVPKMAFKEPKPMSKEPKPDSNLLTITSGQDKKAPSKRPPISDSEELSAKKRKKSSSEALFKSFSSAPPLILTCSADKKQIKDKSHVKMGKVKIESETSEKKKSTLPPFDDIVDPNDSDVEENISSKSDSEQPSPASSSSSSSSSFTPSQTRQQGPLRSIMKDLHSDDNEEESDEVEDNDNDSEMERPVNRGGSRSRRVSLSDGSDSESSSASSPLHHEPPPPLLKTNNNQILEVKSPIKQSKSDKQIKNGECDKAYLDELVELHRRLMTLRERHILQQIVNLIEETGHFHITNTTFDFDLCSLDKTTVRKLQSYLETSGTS
Ecoli rRNA inh: reduced GFP signal of wild-type E. coli, primary screen, bacterial rRNA inhibitor project, GFP/RFP fluorescence, OD600, single point. E. coli WT GFP vs humanized-ribosome RFP mutants, 24 h; hits give low values; DMSO median 0, no signal -100. GFP signal change (wild-type ribosome), % (test concentration not listed). 1.6% of 350,000 active. AID 720706, 2013;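 active = significant combined selectivity score with lowered wild-type GFP, culture density cut under 30%, mutant RFP and density less affected; inactive = any of these conditions unmet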; note: one replicate is shown; some compounds called inactive have numbers as strong as hits
ALR H2O2 inh: inhibitors of human ALR sulfhydryl oxidase, primary screen, biochemical, H2O2 detection, HRP-luminol luminescence, single point; purified ALR, DTT oxidation; inhibition, % (test concentration not listed); 3.8% of 290,000 active;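 active = mean and each replicate at 75% or more; inconclusive = only one of the two met; inactive = neither met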;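 note: stock transfer was 7.5 nL into about 7.5 µL; 0% = neutral wells and 100% = wells with inactivated enzyme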
Target sequence (P55789 whole entry, looked up): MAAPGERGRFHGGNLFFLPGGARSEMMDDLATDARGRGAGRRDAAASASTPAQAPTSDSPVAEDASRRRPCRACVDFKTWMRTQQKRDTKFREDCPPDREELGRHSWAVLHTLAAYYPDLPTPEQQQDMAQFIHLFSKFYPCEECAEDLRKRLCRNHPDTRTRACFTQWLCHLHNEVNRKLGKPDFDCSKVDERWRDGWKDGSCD
Ecoli rRNA inh OD600: also measured in Ecoli rRNA inh; calls as there; OD600 change, %; measured here: OD600 growth;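 optical density of the mix in the first replicate; 0 = DMSO median and -100 = no signal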
Ecoli rRNA inh RFP: recorded beside Ecoli rRNA inh, whose call it bears; RFP signal change, %; measured here: RFP humanized mutant strains;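 first replicate; 0 = DMSO median and -100 = no signal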
* = called active by the depositor; i = inactive; ? = inconclusive; . = not tested or not shown.

SMILES	FGF22 binding	Vif TR-FRET	Ecoli growth	HNF4A DNA FP	AF4-AF9 inh	Ecoli rRNA inh	Ecoli rRNA inh OD600	Ecoli rRNA inh RFP	ALR H2O2 inh
O=C(NCC[C@H]1CC[C@H](NC(=O)c2cccnc2)[C@H](CO)O1)Nc1ccc(Cl)cc1	i	.	.	.	9.3	-56	-73	-8.2	.
COc1ccc(-c2cn(CCO)c(-c3ccncc3)n2)cc1	i	.	0.67	-1.1	-1.1	6	0	-6.8	16
CCN(CC)c1nc(N)c2c(N)nc3c(c2c1C#N)CC(c1ccccc1)O3 (stereo not drawn)	.	4%	0.71	1.6	.	.	.	.	-2
CCN(CC)CC(=O)N1c2ccccc2Sc2ccc(Cl)cc21	.	0%	0.69	-0.2	.	.	.	.	-103
Cc1c(NC(=O)CSc2nnc(C(C)Oc3ccc(Cl)cc3)n2-c2ccccc2)c(=O)n(-c2ccccc2)n1C (stereo not drawn)	.	0%	0.75	0.9	.	.	.	.	-24
O=C(Nc1ccccc1)C1=C[C@@H](c2coc3ccccc3c2=O)C[C@@H](OCCCCO)O1	i	-9%	.	2.3	0.9	-9	-6	5.4	4
O=S(=O)(c1ccc(N2CCOCC2)nc1)N1CCOCC1	.	3%	0.75	1.5	.	.	.	.	-5
Cc1cc(C)c(C#N)c(SCC(=O)Nc2nnc(-c3ccccc3)s2)n1	.	-107%	0.75	3.6	.	.	.	.	-2
N#C[C@@H]1[C@@H](c2ccc(-c3ccccc3F)cc2)[C@H](CO)N1C(=O)c1ccccn1	i	.	.	.	-1.2	-5	-49	15	.
CCn1c(CSc2nc3ccccc3s2)nnc1SCC(=O)c1ccc(Cl)cc1	.	-8%	0.75	-4.6	.	.	.	.	12
COc1ccc(/C=N/n2cc(-c3ccc(OC)cc3)nc2N)cc1	.	-1%	.	1.7	.	-25	-23	-5.0	35
CN(C)S(=O)(=O)c1ccc(N2CCCC2)c(C(=O)Nc2nc(-c3ccc(F)c(F)c3)cs2)c1	.	-50%	0.7	-1.9	.	.	.	.	0
CCc1nc2oc3ccccc3c(=O)c2c(=O)n1CCOC	.	-2%	0.69	-1.7	.	.	.	.	-18
CCC(NC(=S)NC1CCCCC1)c1ccc(C(C)C)cc1 (stereo not drawn)	i	.	.	-0.8	0.4	2	-13	-6.0	-21
CCC(=O)N(C)C[C@@H]1Oc2ncc(C#C[C@@H](C)O)cc2C(=O)N([C@H](C)CO)C[C@H]1C	i	.	.	.	-4.1	1	2	-2.1	.
CN(C)CCCNC(=O)C[C@H]1C=C[C@H](NC(=O)Cc2cccnc2)[C@@H](CO)O1	i	.	.	.	0.5	2	-5	-0.7	.
COCCn1c(SCC(=O)Nc2sccc2C(N)=O)nc2cc(Cl)ccc2c1=O	.	3%	0.77	0.2	.	.	.	.	-1
COc1cccc(OC)c1C(=O)N1CCN(Cc2c[nH]c3ccccc23)CC1	i	-3%	.	-1.1	0.3	4	22	4.6	.
Cc1nc(NC(=S)NC(=O)c2ccccc2)sc1C(=O)N(C)C	.	-3%	0.7	-0.6	.	.	.	.	10
COc1cccc(N2C(=O)CC(Sc3nc(C)cc(C)n3)C2=O)c1 (stereo not drawn)	i	.	0.64	1.0	-5.6	5	8	-1.1	-1
N#C[C@@H]1[C@@H](c2ccc(-c3ccc(F)cc3)cc2)[C@H](CO)N1c1nc(-c2ccccc2)cs1	i	.	.	.	0.0	-4	4	2.8	.
CCOc1ccc(NS(=O)(=O)c2ccc(C(=O)NCC(c3ccccc3OC)N3CCCC3)cc2)cc1 (stereo not drawn)	i	-3%	0.72	0.8	-7.9	1	7	3.0	0
COc1cc(OC)c(OC)cc1CN1CCN(c2ccc(F)cc2)CC1	i	-3%	0.63	-1.4	3.1	2	3	-3.1	.
CCN(C(=O)COC(=O)C1CCN(S(=O)(=O)c2ccc3c(c2)OCCO3)CC1)C1CCS(=O)(=O)C1 (stereo not drawn)	i	-9%	0.71	3.2	-1.8	8	9	-0.3	-2
C/C=C/c1ccc2c(c1)O[C@@H](CN(C)S(C)(=O)=O)[C@@H](C)CN([C@@H](C)CO)S2(=O)=O	i	.	.	.	-0.4	2	6	0.0	.

The listing continues:
SMILES	FGF22 binding	Vif TR-FRET	Ecoli growth	HNF4A DNA FP	AF4-AF9 inh	Ecoli rRNA inh	Ecoli rRNA inh OD600	Ecoli rRNA inh RFP	ALR H2O2 inh
O=S(=O)(c1ccccc1)N1CCN=C1SCc1cccnc1	i	-2%	0.66	2.3	0.7	4	1	-0.9	100*
C[C@@H]1CCCCO[C@@H](CN(C)C(=O)Cc2ccccc2)[C@@H](C)CN([C@H](C)CO)C(=O)c2cc(NS(=O)(=O)c3ccc(Cl)cc3)ccc2O1	i	.	.	.	-2.5	4	1	-2.3	.
Cc1nc([N+](=O)[O-])c(C(=O)OCc2ccc(C#N)cc2)n1C	i	1%	0.69	1.7	-1.1	15	5	4.0	1
CC(C)c1ccc(NCCC(=O)c2cccs2)cc1	.	25%	0.72	-2.7	.	.	.	.	.
COc1ccc(CCNc2ncnc3c2oc2ccccc23)cc1OC	i	-7%	0.68	1.2	-17	15	-5	6.6	.
O=C(CCn1c(=O)oc2ccccc21)NCCCN1CCN(c2ccc(F)cc2)CC1	.	3%	0.71	-2.6	.	.	.	.	57
COC(=O)C1CSC(C)(C)C(=O)N1 (stereo not drawn)	i	2%	0.69	-3.2	-2.7	14	9	-4.6	-9
Cc1[nH]c(=S)c(C#N)c(C)c1CC(=O)c1ccc(Br)cc1	i	.	0.73	-0.2	0.2	6	-1	-2.1	2
Cc1noc(C)c1NC(=O)Nc1cccc2c1O[C@H](CN(C)S(=O)(=O)c1cccs1)[C@H](C)CN([C@H](C)CO)C2=O	i	.	.	.	-2.0	3	2	-0.7	.
CCOC(=O)/C=C1\SCC(=O)N1CC(=O)NCCOC	i	-5%	0.64	1.3	-5.3	16	4	-12	-23
COC(=O)NC(=S)Nc1ccc(Oc2ccc(Cl)cc2)c(Cl)c1	.	4%	0.7	-5.5	.	-3	3	-0.5	1
O=C(CSc1nc(-c2ccc(F)cc2)cc(C(F)(F)F)n1)NCc1ccco1	.	.	0.69	1.2	.	.	.	.	-12
CN(C)CCCSc1nc(-c2ccccc2)nc2c1CCC2	i	.	0.74	1.3	-2.3	-5	1	0.3	-1
O=C1/C(=C/c2ccc(F)cc2)SC(=S)N1Nc1ncc(C(F)(F)F)cc1Cl	.	2%	0.73	1.9	.	.	.	.	-2
O=C(Nc1ccc(OCc2ccccc2)cc1)Nc1ccccc1C(=O)NCCCN1CCOCC1	i	-9%	0.62	4.7	-3.7	-22*	5.2*	6.7*	-3
O=C(C1CCN(S(=O)(=O)c2ccccc2)CC1)N1CCN(c2ccccc2F)CC1	i	9%	0.69	0.5	1.4	-4	-1	-1.4	-4
Cc1ccc(NC(=O)C2CCCN2C(=O)NC2CCCCC2)cc1 (stereo not drawn)	i	17%	0.66	11	-0.7	15	20	3.4	-10
COc1cccc2c1C(=O)CC2NC(=O)C(F)(F)F (stereo not drawn)	.	7%	0.67	6.9	.	.	.	.	10
Cc1ccc(C)c(S(=O)(=O)N2CCN(CC(=O)NC(C)c3ccccc3)CC2)c1 (stereo not drawn)	i	19%	0.71	4.4	-1.9	-12	-14	3.4	-2
CC1CCCN(S(=O)(=O)c2cc(C(=O)NCc3ccco3)ccc2Cl)C1 (stereo not drawn)	i	.	0.71	0.0	0.6	6	-25	-4.0	2
COC(=O)C1=C(C)NC(=S)NC1c1ccc(OC)cc1 (stereo not drawn)	.	.	.	.	-5.8	11	13	3.6	.
COc1ccc(NC(=O)N2CCN(C(=O)C(Cc3ccc(F)cc3)NC(C)=O)CC2)cc1 (stereo not drawn)	i	.	0.71	0.6	2.0	-12	-17	3.2	.
O=C(O)CCCC(=O)N1CC(=O)Nc2ccccc21	.	-3%	0.74	3.4	.	.	.	.	-9
O=C(CCC(=O)N(CC(=O)NC1CCCCC1)c1ccc2c(c1)OCO2)Nc1ccccn1	.	14%	0.77	0.0	.	.	.	.	-10
Cc1cccc(C(=O)Nc2cccc(C(=O)NC3CCCC3)c2)c1	i	4%	0.72	0.5	0.4	-3	-4	-1.4	-3

More results:
SMILES	FGF22 binding	Vif TR-FRET	Ecoli growth	HNF4A DNA FP	AF4-AF9 inh	Ecoli rRNA inh	Ecoli rRNA inh OD600	Ecoli rRNA inh RFP	ALR H2O2 inh
NS(=O)(=O)c1ccc(CNc2ncnc3sccc23)cc1	i	.	0.65	3.1	0.0	6	1	0.1	-2
CCOc1cc(/C=C2\N=C(SC)SC2=O)cc([N+](=O)[O-])c1OC(C)=O	.	?	0.78	2.1	.	.	.	.	.
CCCC1C(=O)N(c2ccccc2)C1c1ccccc1 (stereo not drawn)	.	1%	0.66	-2.4	.	.	.	.	-12
CCOc1ccc2ccccc2c1/C=N/NC(=O)c1cc(C)[nH]n1	i	.	.	-1.8	1.9	0	-2	-3.1	.
COc1ccccc1N1CCN(S(=O)(=O)c2cc3c(cc2C)NC(=O)CO3)CC1	i	.	0.78	5.1	13	-1	-2	7.1	36
CC(C)Nc1nc2nonc2nc1Nc1ccccc1	i	-5%	0.66	-3.2	3.0	-49	-79	-15	8
C[C@H]1CN([C@@H](C)CO)C(=O)c2cc(NC(=O)Cc3cn(C)c4ccccc34)ccc2O[C@H]1CN(C)Cc1ccc(C(F)(F)F)cc1	i	.	.	.	-0.6	1	-22	-2.2	.
CC(=O)Nc1ccc(S(=O)(=O)Nc2nc3ccccc3nc2Nc2ccccc2)cc1	i	?	0.71	2.0	-1.4	2	-12	-6.8	.
O=C(CNC(=O)OCc1ccccc1)Oc1cc2oc(=O)cc(-c3ccccc3)c2cc1Cl	.	7%	0.68	-0.3	-5.1	-19	-20	0.4	2
COc1cc(NC(=O)c2csc3c2CCCC3)ncn1	i	-3%	0.68	-0.3	11	6	6	-0.2	-1
COc1ccc(NC(=O)/C=C/C(=O)O)cc1Cl	i	-2%	0.65	-0.3	-6.9	2	-2	3.2	.
CCN(C(=O)CN1CCN(c2ccccc2)CC1)c1c(N)n(Cc2ccccc2)c(=O)[nH]c1=O	.	-7%	0.76	2.2	.	.	.	.	34
CC(CCc1ccco1)NC(=O)CCc1nnc2ccc(NCc3ccccc3)nn12 (stereo not drawn)	i	1%	0.72	0.6	3.8	-8	-15	-2.2	7

6 consecutive entries from above, for reference:
SMILES	FGF22 binding	Vif TR-FRET	Ecoli growth	HNF4A DNA FP	AF4-AF9 inh	Ecoli rRNA inh	Ecoli rRNA inh OD600	Ecoli rRNA inh RFP	ALR H2O2 inh
NS(=O)(=O)c1ccc(CNc2ncnc3sccc23)cc1	i	.	0.65	3.1	0.0	6	1	0.1	-2
CCOc1cc(/C=C2\N=C(SC)SC2=O)cc([N+](=O)[O-])c1OC(C)=O	.	?	0.78	2.1	.	.	.	.	.
CCCC1C(=O)N(c2ccccc2)C1c1ccccc1 (stereo not drawn)	.	1%	0.66	-2.4	.	.	.	.	-12
CCOc1ccc2ccccc2c1/C=N/NC(=O)c1cc(C)[nH]n1	i	.	.	-1.8	1.9	0	-2	-3.1	.
COc1ccccc1N1CCN(S(=O)(=O)c2cc3c(cc2C)NC(=O)CO3)CC1	i	.	0.78	5.1	13	-1	-2	7.1	36
CC(C)Nc1nc2nonc2nc1Nc1ccccc1	i	-5%	0.66	-3.2	3.0	-49	-79	-15	8

A portion of the library; count on the stated rates, not on these rows.
